Mtb H37Rv – Mycobacterium tuberculosis H37Rv growth inhibition, cell based, confirmatory dose response (AID 1949); most inactive calls were filed without a number and no value below 0 was filed; inhibition, % at 10 µg/mL, or IC50 in µg/mL where a hit was titrated; 100,000 tested, 1.6% active;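 active = confirmed in a dose series; inconclusive = about 50% or more but not retested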;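 note: bacteria grown 7 days with compound before Alamar blue readout; 0% = untreated bacteria and 100% = reference antibiotic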
Numbers without * were called inactive; i = inactive; ? = inconclusive. This is a subset (hit frequency here may not be typical).

smiles | Mtb H37Rv
CCCC(C)NS(=O)(=O)c1ccc(OC)c(Cl)c1Cl (stereo not drawn) | i
COc1ccccc1COc1ccc2c(C)c(CCC(=O)O)c(=O)oc2c1C | 4.9%
CC1(C)CC(NC(=O)C(Cl)(Cl)Cl)CC(C)(C)N1 | i
CCc1cc(=O)oc2cc(OCc3c(F)cccc3Cl)c(Cl)cc12 | i
Cc1ccnc(NC(=O)c2ccc(C(=O)Nc3cc(C)ccn3)cc2)c1 | i
COc1ccc(S(=O)(=O)Nc2cccc(C)c2)c(Cl)c1Cl | i
COc1cccc(OC)c1C(=O)NC(=S)Nc1ccc2oc(-c3ccc(F)cc3)nc2c1 | i
CN(CC(=O)NC1CC1)S(=O)(=O)c1ccc(Br)cc1 | i
CCCOc1cc(C)c(S(=O)(=O)N2CCCC2)cc1C | 2.8%
O=C(Nc1ccc2nc(SCc3cccc(F)c3)sc2c1)c1ccc([N+](=O)[O-])cc1 | i
O=C(O)Cc1nnc(-c2ccco2)n1-c1ccccc1 | 1.9%
S=C(Nc1ccc(N2CCOCC2)cc1)Nc1ccc2nc(-c3ccco3)c(-c3ccco3)nc2c1 | 0.1%
CCCCCC(=O)Nc1ccc(I)cc1CC | 40.1%
CC(=O)NNc1ccc(Br)cc1 | 18.7%
S=c1nc(-c2ccc(Br)cc2)n(CC2CCCO2)c2c1CCCC2 (stereo not drawn) | i
CCCCn1nnnc1NCc1ccc(N(CC)CC)cc1 | i
CC(C)=C1C2CCC1C(C(=O)Nc1ccc(C)c(Cl)c1)C2C(=O)O (stereo not drawn) | i
NC(=O)c1c(NC(=O)C2CCCCC2)sc2c1CCCC2 | 2.1%
Nc1nc2c3ccccc3nc(Cc3ccccc3)n2n1 | i
COc1ccc(C2CC(c3cc(Cl)ccc3OC(C)=O)=NN2C(C)=O)cc1OC (stereo not drawn) | 9.0%
CC(C)CC(=O)NC(=S)Nc1ccc(C(F)(F)F)cc1[N+](=O)[O-] | i
C=CCOc1c(Cl)cc(CNc2ccc(CC)cc2)cc1Cl | 3.1%
CC(C)NC(=O)C1CC(c2ccc(Cl)cc2)=NO1 (stereo not drawn) | 1.5%
S=C(Nc1ccccc1)Nc1ccccc1-c1ccccc1NC(=S)Nc1ccccc1 | i
CCOC(=O)c1c(CS(=O)(=O)c2ccccc2)n(C)c2cc(Br)c(O)c(CN(C)C)c12 | i
Fc1ccc(N2COc3cc4c(cc3C2)OCO4)cc1Cl | i
Cc1cc(C)c(C)c(OCC(=O)NCCN(C)C)c1 | i
C=CCSc1nnc2c(n1)[nH]c1c(C)cc(C)cc12 | 4.0%
COc1ccc(CCNC(=O)COc2ccc(Cl)c3cccnc23)cc1OC | 2.3%
CCc1sc(C(=O)Nc2sc(C)c(C)c2C#N)cc1Br | 2.4%
S=C(NCCc1ccccc1)NNC(=S)Nc1ccc(Cl)cc1 | i
COc1ccc(NC(=O)c2ccc(N3CCN(C)CC3)c([N+](=O)[O-])c2)cc1 | i
COc1cccc(C2=Nc3cccc4cccc(c34)N2)c1 | i
C=CCn1c(SCC(=O)Nc2c(C)cc(C)cc2C)nnc1C(C)NC(=O)c1ccccc1 (stereo not drawn) | 1.2%
CCOC(=O)c1ccc(NC(=O)c2c(NC(=O)CCC(=O)O)sc3c2CCCCC3)cc1 | i
C=CCn1c(SCC(=O)c2ccc(F)cc2)nnc1-c1cccs1 | 2.7%
O=C(NCc1cccnc1)C1CCNCC1 | 0.9%
CS(=O)(=O)N(Cc1ccccc1)c1ccccc1C(=O)Nc1ccc(Cl)cc1 | 1.1%
Cc1ccc(Nc2ncnc(N)c2[N+](=O)[O-])cc1C | 0.3%
Cc1ccccc1OCC(O)CN1CCC(C)CC1 (stereo not drawn) | i
Cc1ccc(C(=O)Nc2ccc(-c3cn4ccccc4n3)cc2)cc1 | i
CN(c1ccccc1)c1ccc([N+](=O)[O-])c2nonc12 | <0.1µg/mL*
Cc1cccc(N(CC(=O)NCCC2=CCCCC2)S(C)(=O)=O)c1C | i
O=C(CSc1ccccn1)Nc1cc(C(=O)O)cc(C(=O)O)c1 | i
Cc1ccc(F)c(NC(=O)c2cc3c4c(sc3nc2N)CN(C)CC4)c1 | i
Fc1ccccc1-c1n[nH]c(=S)n1CCCN1CCOCC1 | i
CCOC(=O)c1ccc(NC(=O)Cn2c(C(F)(F)F)nc3ccccc32)cc1 | i
NC(=S)N1N=C(c2ccccc2)CC1c1ccccc1 (stereo not drawn) | i
COc1cc(C2NC(=S)NC(C)=C2C(C)=O)cc(Br)c1O (stereo not drawn) | i
O=C(c1sc2ccccc2c1Cl)N1CCN(CCN2C(=O)C3C4C=CC(C4)C3C2=O)CC1 (stereo not drawn) | 0.8%
CCOc1cc(C(=S)N2CCOCC2)ccc1OCc1cccc(F)c1 | i
COc1ccc(N2CCN(S(=O)(=O)c3ccc(F)cc3OC)CC2)cc1 | i
CCCNC(=O)C1CCN(C(=O)c2ccc(C(C)(C)C)cc2)CC1 | i
O=C(COc1ccc2ccc(=O)oc2c1)c1ccc2ccccc2c1 | 0.5%
CCOC(=O)c1c(NC(=O)COc2ccccc2)sc(C(=O)OC)c1C | i
COc1ccc(C(=O)Oc2ccc([N+](=O)[O-])cc2)cc1Br | i
CN1CCN(S(=O)(=O)c2ccc(NC(=O)Cc3cccs3)cc2)CC1 | i
CS(=O)(=O)N(CC(=O)Nc1cccc(Br)c1)c1cccc2ccccc12 | 10.1%
Cc1ccc(NC(=O)c2cccc(N3C(=O)CCC3=O)c2)nc1 | i
COc1ccc2cc(S(=O)(=O)N3CCC(Cc4ccccc4)CC3)ccc2c1 | 0.3%

Next records.
smiles | Mtb H37Rv
COc1cccc(NC(=O)CSc2nnc(-c3ccoc3C)n2-c2ccccc2)c1 | i
O=C(CSCc1c(Cl)cccc1Cl)Nc1ccccc1 | 5.4%
COc1ccc(CCNC(=O)Nc2cccc(Cl)c2)cc1 | 0.3%
CC(C)(C)c1csc(NC(=O)C2CCC2)n1 | i
CCCCc1ccc(NC(=O)c2ccc(COc3ccccc3)o2)cc1 | 38.3%
CCOC(=O)C1CCCN(C(=S)Nc2cc(Cl)ccc2OC)C1 (stereo not drawn) | i
CC(=O)N1CCN(C(=S)c2ccc(-c3ccc(C)cc3)o2)CC1 | i
c1coc(-c2nn3c(Cn4nnc5ccccc54)nnc3s2)c1 | 0.3%
CCOC(=O)c1ccc(NC(=O)c2cccc(S(=O)(=O)N3CCCCC3)c2)cc1 | i
CC(C)Oc1ccc(CSc2nnc3n(C)c(=O)c4c5c(sc4n23)CCCC5)cc1 | i
Cc1ccccc1C(=O)NC(=S)Nc1cccc(C(=O)O)c1C | i
CCOCC(=O)Nc1ccc(S(=O)(=O)Nc2nccs2)cc1 | 2.6%

A different layout for three compounds above:
> COc1ccc(S(=O)(=O)Nc2cccc(C)c2)c(Cl)c1Cl
  Mtb H37Rv: i
> CC(C)(C)c1csc(NC(=O)C2CCC2)n1
  Mtb H37Rv: i
> O=C(O)Cc1nnc(-c2ccco2)n1-c1ccccc1
  Mtb H37Rv: 1.9%

Continuation.
smiles | Mtb H37Rv
CCc1sc(C(=O)NCCCN2CCCC2=O)cc1Br | i
NS(=O)(=O)c1ccc(NC(=S)N2CCN(c3cccc(C(F)(F)F)c3)CC2)cc1 | i
O=C(Nc1cccc2ncccc12)c1cccc(I)c1 | 2.5%
CC(=O)Nc1cccc(-c2nnc(SCC(=O)N3CCN(c4ccccc4)CC3)n2C)c1 | i
CC(=O)Nc1cccc(NC(=O)c2csc(C)c2)c1 | i
O=C(Nc1nnc(CC2=CCCCC2)s1)c1cccs1 | i
COc1cc(S(=O)(=O)N2CCCCC2)ccc1NC(=O)Cc1ccccc1 | i
Cc1ccc2nc(C)c3c(c2c1)OC(C(C)(Cl)Br)C3 (stereo not drawn) | 21.6%
CCOC(=O)COc1ccc2cc(-c3nc4ccccc4o3)c(=O)oc2c1 | 3.3µg/mL*
CC(=O)c1ccc(OC(=O)COc2c(C)ccc(C)c2C)cc1 | 0.0%
CC(=O)Nc1ccc(S(=O)(=O)NNC(=S)NCc2ccc(Cl)cc2)cc1 | i
CS(=O)(=O)N1CCN(Cc2cccc(Oc3ccccc3)c2)CC1 | i
COc1ccc(C2(CNC(=O)c3ccccc3F)CCCC2)cc1OC | 0.5%
COc1cc(CO)c(Br)cc1OCc1ccccc1F | 1.3%
CCC(C)NCCCCOc1cc(C)ccc1C (stereo not drawn) | i
O=C(CN(C1CCCCC1)S(=O)(=O)c1ccc(Cl)cc1)Nc1ccccc1C(F)(F)F | 40.1%
O=C(Nc1nnc(SCc2ccc(Br)cc2)s1)c1ccc(Cl)cc1 | i
CCN(CC)S(=O)(=O)c1cccc(N)c1 | i
O=C(Nc1ccc(Cl)cc1)c1cnccn1 | 0.7%
Cc1ccccc1NC(=O)COc1ccc2oc(=O)cc(C)c2c1 | i
COc1ccc(Cl)cc1NS(=O)(=O)c1ccc(Br)s1 | i
Cc1cc(Br)ccc1NC(=O)c1cccc(NC(=O)C(C)C)c1 | 1.3%
CC(=O)NS(=O)(=O)c1ccc(NC(=O)Cc2cccs2)cc1 | 2.5%
COc1ccc(NC(=O)CN(c2ccccc2C)S(C)(=O)=O)c(OC)c1 | i
O=C(COc1ccccc1)Nc1cccc2cccc(NC(=O)COc3ccccc3)c12 | i
CCOC(=O)CSc1nnc2n(Cc3ccccc3)c(=O)c3c(n12)-c1ccccc1CC3(C)C | 6.1%
COc1cccc(N2C(=O)N(c3ccccc3Cl)C3CS(=O)(=O)CC32)c1 (stereo not drawn) | i
N#CC1=C(N)Oc2n[nH]c(-c3ccccc3Cl)c2C1c1cccc([N+](=O)[O-])c1 (stereo not drawn) | i
Cc1[nH]c2ccccc2c(=O)c1CN1CCCCC1 | i
O=C(Nc1ccc(Cl)cc1)Nc1nnc(/C=C/c2ccccc2Cl)s1 | i
O=C(O)COc1ccc(NC(=O)c2ccc3c(c2)C(=O)N(C2CCCCC2)C3=O)cc1 | i
Cc1cc(=O)[nH]c(SCC(=O)Nc2cccc3ccccc23)n1 | i
COc1ccccc1OCC(=O)Nc1ccc(-c2nc3ccccc3s2)cc1 | 1.2%
COc1ccc(C2=NN(C(=O)CCC(=O)O)C(c3cccs3)C2)cc1OC (stereo not drawn) | i
COc1ccc2sc(C(=O)O)c(Br)c2c1 | i
Cc1cc(C(C)(C)C)ccc1OCCN1CCN(C)CC1 | i
CC(C)(C)N1C(=O)c2ccc(C(=O)Nc3ccccc3-c3ccccc3)cc2C1=O | i
O=C(NC1CCCCC1)c1ccc(S(=O)(=O)N2CCCC2)cc1 | i
Cn1c(=O)c2c(ncn2CC(=O)Nc2ccccc2Sc2ccccc2)n(C)c1=O | i
Cc1cn(S(=O)(=O)c2ccc(I)cc2)cn1 | 2.5%
CC(C)CN(CC(C)C)C(=O)c1cc2ccccc2oc1=O | i
Cc1ccc(C)c(-c2csc(NC(=O)c3csc4c3CCCC4)c2C(N)=O)c1 | i
Cc1ccc(S(=O)(=O)NC2(C(F)(F)F)C(=O)N(Cc3ccco3)C3=C2C(=O)CC(C)(C)C3)cc1 (stereo not drawn) | i
Cc1ccccc1NC(=S)N1CCCCC1 | i
Cc1ccc(C)c(-n2nnnc2Sc2nc([N+](=O)[O-])nn2C)c1 | i
CCOC(=O)C1=C(O)CSC1=Nc1ccc(C)cc1 | i
Cc1cc(S(=O)(=O)N2CCCC2)c(C)cc1Cl | 1.3%
COc1cccc(C(=O)NC(c2ccccc2)c2ccccc2)c1 | i
CC(=O)c1cccc(-n2c(-c3ccc4ccccc4n3)n[nH]c2=S)c1 | i
NS(=O)(=O)c1ccc(NC(=S)NC(=O)c2ccc(Cl)cc2Cl)cc1 | i
COc1cc(/C=C(/C#N)c2ccc(Cl)cc2)cc2c1OCO2 | i
Cc1c(C(=O)NCCCn2ccnc2)oc2c1C(=O)CC(C)(C)C2 | i
Cc1ccc(OCC(=O)NC(=S)Nc2cc(-c3nc4ncccc4o3)ccc2Cl)cc1 | i
CCc1cc(=O)oc2cc(OCC(=O)c3ccc(OC)cc3)ccc12 | 1.3%
CC(C)(C)NC(=O)CNC(=O)C1CCCCC1 | i
S=c1cc(-c2ccccc2)[nH]c(SCc2ccccc2)n1 | i
CCOC(=O)c1sc(NC(=O)C(F)(F)F)c(C(=O)OCC)c1C | i
O=C(Nc1ccccc1C(=O)Nc1ccncc1)c1ccccc1 | 0.5%
CCOc1ccccc1OCC(=O)Oc1ccc(C)c(C)c1 | i
COc1ccc(OC)c(NC(=O)CN(Cc2ccccc2)S(C)(=O)=O)c1 | i

Following part.
smiles | Mtb H37Rv
C#CCn1cc(/C=C/[N+](=O)[O-])c2ccccc21 | ?
Cc1ccc(CNC(=O)C(=O)Nc2ccc([N+](=O)[O-])cc2)cc1 | i
CCN(CC)C(=O)Cn1cnc2sc3c(c2c1=O)CCC(C)C3 (stereo not drawn) | i
CC1=C(C(=O)OC(C)C)C(C2CC=CCC2)NC(=O)N1 (stereo not drawn) | i
O=C(NC1CCCCCC1)c1ccccc1N(Cc1ccccc1)S(=O)(=O)c1ccccc1 | 8.5%
O=C(c1ccc(Br)s1)N1CCC(Cc2ccccc2)CC1 | i
CNC(=O)c1c(NC(=O)c2ccco2)sc2c1CCC(C(C)(C)C)C2 (stereo not drawn) | 0.7%
O=C(Nc1nc2c(s1)CCCC2)c1sc2ccccc2c1Cl | i
Cc1cccn2cc(-c3cccc(NC(=O)c4cccc([N+](=O)[O-])c4)c3)nc12 | i
O=C(Nc1ccccc1C(=O)NC12CC3CC(CC(C3)C1)C2)c1ccccc1F | i
Cc1nc(CSc2ncnc3sc4c(c23)CCC4)cs1 | 0.6%

Source: PubChem BioAssay (Southern Research Institute)
